Ecoli rRNA inh: selective bacterial rRNA inhibition in E. coli | GFP signal change (wild-type ribosome), % (concentration not given with the values) | E. coli WT GFP vs humanized-ribosome RFP mutants, fluorescence, 24 h; stronger effect = lower value; DMSO median 0, no signal -100 | 350,000 compounds, 1.6% hits;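 active = significant combined selectivity score with lowered wild-type GFP, culture density cut under 30%, mutant RFP and density less affected; inactive = any of these conditions unmet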; also: one replicate is shown; some compounds called inactive have numbers as strong as hits
FGF22 binding: FGF22 (human) thermal shift binding. recombinant FGF22 thermal shift, SYPRO orange fluorescence; percent of sucrose octasulfate shift, DMSO zero. 340,000 compounds, 1.5% hits. calls only at 9.99 µM;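 active = melting point raised past a set limit in the mean and every replicate; three in four hits are not shown here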
Target sequence (Q9HCT0 whole entry, looked up): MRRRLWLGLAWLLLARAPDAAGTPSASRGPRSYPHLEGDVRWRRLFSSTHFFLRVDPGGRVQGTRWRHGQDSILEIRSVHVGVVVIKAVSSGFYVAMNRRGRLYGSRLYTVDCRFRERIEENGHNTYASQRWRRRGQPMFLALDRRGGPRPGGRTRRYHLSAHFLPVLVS
Ecoli rRNA inh OD600: further read-out of Ecoli rRNA inh, marked with its call; OD600 change, %; measured here: OD600 growth;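 optical density of the mix in the first replicate; 0 = DMSO median and -100 = no signal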
Ecoli rRNA inh RFP: second read-out of Ecoli rRNA inh, no call of its own (marks repeat the call); RFP signal change, %; measured here: RFP humanized mutant strains;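 first replicate; 0 = DMSO median and -100 = no signal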
* hit, by the source's call; i = inactive. These rows are one share of the data; count on the stated rates, not on these rows.

The first 2 entries (preview)
molecule | Ecoli rRNA inh | Ecoli rRNA inh OD600 | Ecoli rRNA inh RFP | FGF22 binding
Cc1ccc(S(=O)(=O)Nc2ccc3c(c2)C(=O)N([C@@H](C)CO)C[C@H](C)[C@H](CN(C)S(=O)(=O)c2ccc(F)cc2)OCCCC[C@H](C)O3)cc1 | -1 | -6 | 0.8 | i
COCC(=O)N1CCC2(CC1)CN(C(=O)COC)[C@@H](CO)c1c2c2ccc(OC)cc2n1C | 2 | 13 | -4.4 | i

This part in full, from the first entry:
molecule | Ecoli rRNA inh | Ecoli rRNA inh OD600 | Ecoli rRNA inh RFP | FGF22 binding
Cc1ccc(S(=O)(=O)Nc2ccc3c(c2)C(=O)N([C@@H](C)CO)C[C@H](C)[C@H](CN(C)S(=O)(=O)c2ccc(F)cc2)OCCCC[C@H](C)O3)cc1 | -1 | -6 | 0.8 | i
COCC(=O)N1CCC2(CC1)CN(C(=O)COC)[C@@H](CO)c1c2c2ccc(OC)cc2n1C | 2 | 13 | -4.4 | i
COc1cccc(-c2ccc3c(c2)O[C@@H](CN(C)C(=O)c2ccccc2F)[C@@H](C)CN([C@H](C)CO)S3(=O)=O)c1 | -13 | -13 | -1.6 | i
CN1C(=O)c2cc(NC(=O)Cc3cccs3)ccc2OC[C@H]2O[C@@H](CC(=O)N[C@H]3CCN(Cc4ccccc4)C3)CC[C@@H]21 | 2 | 3 | -1.7 | i
CO[C@@H]1CN(C)C(=O)c2ccc(NS(=O)(=O)c3ccc(Cl)cc3)cc2OC[C@@H](C)N(C)C[C@@H]1C | -1 | 2 | 0.0 | i
C[C@@H]1CN([C@H](C)CO)C(=O)c2cc(NS(=O)(=O)c3ccc(F)cc3)ccc2O[C@H]1CN(C)S(=O)(=O)c1ccc(Cl)cc1 | 1 | -11 | -1.5 | i
COc1ccccc1NC(=O)N[C@@H]1CC[C@@H](CCn2cc(-c3ccccc3)nn2)O[C@H]1CO | -1 | 3 | 2.6 | i
O=C([C@H]1[C@H](CO)[C@H]2Cn3c(ccc(-c4ccc(F)cc4)c3=O)[C@H]2N1Cc1cocn1)N1CCOCC1 | 3 | 5 | 1.1 | i
CC(C)NC(=O)Nc1ccc2c(c1)C(=O)N([C@H](C)CO)C[C@H](C)[C@@H](CN(C)Cc1ccc(C(F)(F)F)cc1)O2 | 2 | 0 | -0.4 | i
COc1ccc(CN(C)C[C@H]2Oc3c(NC(=O)c4ccc(-c5nccs5)cc4)cccc3C(=O)N([C@@H](C)CO)C[C@H]2C)cc1 | -4 | -4 | 2.7 | i
COCC(=O)NC[C@H]1[C@@H](c2ccc(-c3ccccc3)cc2)[C@@H](CO)N1C(C)=O | 1 | 0 | -1.1 | i
CO[C@H]1CN(C)C(=O)c2ccc(NC(C)=O)cc2OC[C@@H](C)N(C(=O)Cc2ccccn2)C[C@H]1C | 0 | 1 | -0.7 | i
CCC(=O)N(C)C[C@H]1Oc2cc(C#CCOC)ccc2S(=O)(=O)N([C@@H](C)CO)C[C@@H]1C | 1 | 7 | -2.1 | i
O=C(NCCc1ccccc1)[C@H]1[C@H](CO)[C@H]2Cn3c(ccc(-c4ccccc4)c3=O)[C@@H]1N2 | -2 | -7 | -0.3 | i
COc1ccc(S(=O)(=O)N(C)C[C@@H]2OCCCC[C@@H](C)Oc3ccc(NS(=O)(=O)c4ccc(F)cc4)cc3C(=O)N([C@H](C)CO)C[C@@H]2C)cc1 | 3 | -2 | -1.5 | i
COc1ccc(NC(=O)Nc2ccc3c(c2)CC(=O)N([C@@H](C)CO)C[C@@H](C)[C@H](CN(C)Cc2ccncc2)O3)cc1 | -1 | -1 | -2.4 | i
Cc1noc(C)c1S(=O)(=O)N(C)C[C@@H]1OCCCC[C@@H](C)Oc2ccc(NC(=O)CCCN(C)C)cc2C(=O)N([C@@H](C)CO)C[C@H]1C | 2 | 3 | 0.3 | i
C[C@@H]1CCCCO[C@@H](CN(C)C(=O)c2ccccc2)[C@@H](C)CN([C@@H](C)CO)C(=O)c2cc(NS(=O)(=O)c3cccs3)ccc2O1 | 3 | -2 | 0.9 | i
COc1ccc(-c2ccc([C@@H]3[C@@H](CO)N4CCCCN(C(=O)c5ccc6c(c5)OCO6)C[C@@H]34)cc2)cc1 | -32 | -58 | -3.9 | i
C[C@H](CO)N1C[C@H](C)[C@H](CN(C)S(C)(=O)=O)Oc2ccc(NC(=O)Cc3ccccc3)cc2C1=O | 1 | 1 | -2.3 | i

Part of the list above, showing only Ecoli rRNA inh RFP, Ecoli rRNA inh OD600 and FGF22 binding:
SMILES	Ecoli rRNA inh RFP	Ecoli rRNA inh OD600	FGF22 binding
CO[C@H]1CN(C)C(=O)c2ccc(NC(C)=O)cc2OC[C@@H](C)N(C(=O)Cc2ccccn2)C[C@H]1C	-0.7	1	i
COCC(=O)NC[C@H]1[C@@H](c2ccc(-c3ccccc3)cc2)[C@@H](CO)N1C(C)=O	-1.1	0	i

Additional records follow.
molecule | Ecoli rRNA inh | Ecoli rRNA inh OD600 | Ecoli rRNA inh RFP | FGF22 binding
C[C@@H]1CN([C@@H](C)CO)C(=O)c2cc(C#CCc3ccccc3)cnc2O[C@H]1CN(C)C(=O)C1CCCCC1 | -1 | 4 | -0.3 | i
CCN1[C@@H]2c3ccc(-c4cccnc4)c(=O)n3C[C@@H]2[C@@H](CO)[C@@H]1C(=O)NCCc1cn(C)cn1 | 1 | 6 | 0.3 | i
CCCC(=O)Nc1ccc2c(c1)OC[C@@H](C)N(Cc1ccccc1OC)C[C@@H](C)[C@H](OC)CN(C)C2=O | 0 | 2 | 0.2 | i
O=C(C[C@H]1CC[C@H]2[C@@H](COC[C@@H](O)CN2CC2CCCCC2)O1)NCC1CC1 | -9 | -16 | -0.5 | i
COCCNC(=O)C[C@H]1C[C@H]2c3cc(NS(=O)(=O)c4ccccc4)ccc3O[C@H]2[C@H](CO)O1 | -2 | -4 | -3.8 | i
CN1C(=O)C2CC(O)C(SC3CC4C(=O)N(C)C(=O)C4CC3O)CC2C1=O (stereo not drawn) | 14 | 20 | -0.2 | i
C[C@H](NC(=O)C[C@@H]1C[C@H]2c3cc(NS(C)(=O)=O)ccc3O[C@H]2[C@H](CO)O1)c1ccccc1 | -1 | 2 | 0.3 | i
C[C@H](CO)N1C[C@H](C)[C@H](CN(C)C(=O)Nc2ccc(C(F)(F)F)cc2)Oc2c(NC(=O)CCCCCC(=O)Nc3ccccc3N)cccc2C1=O | -2 | -7 | 1.1 | i
CCCC(=O)Nc1ccc2c(c1)OC[C@@H](C)N(C(=O)CC)C[C@H](C)[C@@H](OC)CN(C)C2=O | -1 | 4 | 2.8 | i
C[C@H]1CN([C@@H](C)CO)S(=O)(=O)c2ccc(C#CC3CC3)cc2O[C@H]1CN(C)C(=O)c1ccncc1 | 0 | 1 | -2.3 | i
O=C(C1CCOCC1)N1CC2(C1)[C@H](c1ccccc1)[C@H](CO)N2C(=O)CC1CC1 | 1 | 4 | -1.6 | i
COc1ccc2c3c(n(C)c2c1)[C@H](CO)N(C(=O)C1CC1)CC31CN(Cc2cccc(F)c2)C1 | -7 | -36 | 8.7 | i
CCC(=O)N(C)C[C@H]1Oc2ncc(-c3ccc(C(=O)N(C)C)cc3)cc2C(=O)N([C@@H](C)CO)C[C@H]1C | 5 | 16 | -1.4 | i
COCC(=O)N(C)C[C@H]1Oc2ncc(C#Cc3ccc(OC)cc3)cc2C(=O)N([C@H](C)CO)C[C@@H]1C | -4 | -2 | -1.2 | i
COCC(=O)Nc1ccc2c(c1)C(=O)N(C)[C@@H]1CC[C@@H](CC(=O)NCc3ccccc3Cl)O[C@H]1CO2 | -2 | -7 | 1.8 | i
Cc1ccc(S(=O)(=O)Nc2ccc3c(c2)C(=O)N([C@@H](C)CO)C[C@H](C)[C@H](CN(C)S(=O)(=O)c2cn(C)cn2)OCCCC[C@@H](C)O3)cc1 | 1 | -5 | -1.2 | i
COc1ccccc1C#Cc1ccc([C@H]2[C@H](C#N)N(C(=O)C3CC3)[C@H]2CO)cc1 | 1 | -1 | 1.6 | i
CCC(=O)N1CC2(C1)[C@H](c1ccccc1)[C@@H](CO)N2C(=O)c1ccccc1 | 0 | 3 | -1.2 | i
C[C@@H]1CCCCO[C@H](CN(C)CC2CCCCC2)[C@H](C)CN([C@H](C)CO)C(=O)c2cc(NC(=O)CCC(F)(F)F)ccc2O1 | 1 | 0 | -0.2 | i
O=C(NCC[C@@H]1CC[C@H](NC(=O)c2cnccn2)[C@@H](CO)O1)Nc1ccc(Cl)cc1 | -20 | -16 | 4.4 | i
O=C(NCC[C@@H]1CC[C@@H](NS(=O)(=O)c2ccc(Cl)cc2)[C@@H](CO)O1)c1ccc2c(c1)OCO2 | -4 | -2 | 1.1 | i
Cc1cccc(-c2ccc([C@H]3[C@@H](CO)N4C(=O)CN(C(=O)c5ccc6c(c5)OCO6)C[C@@H]34)cc2)c1 | -9 | -19 | -1.0 | i
CNC[C@@H]1Oc2cc(C#Cc3ccccc3OC)ccc2S(=O)(=O)N([C@H](C)CO)C[C@H]1C | 2 | 4 | 7.7 | i
C[C@@H]1CN([C@H](C)CO)S(=O)(=O)c2ccc(Br)cc2O[C@@H]1CN(C)C | 1 | 6 | -0.2 | i
C[C@@H]1CN([C@@H](C)CO)C(=O)Cc2cc(NC(=O)Cc3ccccc3)ccc2O[C@H]1CN(C)C(=O)Nc1cccc2ccccc12 | -2 | -2 | 0.0 | i
C[C@H](CO)N1C[C@H](C)[C@H](CN(C)S(=O)(=O)c2cccs2)Oc2ncc(-c3cccc(C(F)(F)F)c3)cc2C1=O | -5 | -21 | 3.4 | i
O=C(C[C@@H]1CC[C@H]2[C@@H](COC[C@H](O)CN2CC2CCOCC2)O1)NCc1ccc(Cl)cc1 | 0 | 1 | -3.3 | i
O=C(NCC1CCN(C(=O)C(=O)c2cccs2)CC1)c1ccncc1 | 14 | -5 | 2.8 | i
CO[C@@H]1CN(C)C(=O)c2cc(NS(=O)(=O)c3ccccc3Cl)ccc2OC[C@@H](C)NC[C@@H]1C | 1 | -4 | -2.2 | i
C[C@@H]1CN([C@@H](C)CO)C(=O)c2cc(NS(=O)(=O)c3ccccc3)ccc2O[C@@H](C)CCCCO[C@H]1CN(C)S(=O)(=O)c1ccccc1 | -4 | -10 | 1.6 | i
CCC(=O)Nc1ccc2c(c1)OC[C@H](C)N(C(=O)COC)C[C@@H](C)[C@@H](OC)CN(C)C2=O | 1 | 5 | -0.1 | i
O=C(NCCc1ccccc1)[C@H]1[C@H](CO)[C@H]2Cn3c(cccc3=O)[C@@H]1N2Cc1ccccn1 | 5 | -1 | -0.7 | i
O=C(Nc1ccc(Cl)cc1)N[C@@H]1CC[C@@H](CCn2cc(-c3ccccc3F)nn2)O[C@@H]1CO | -2 | 2 | -0.1 | i
O=C(N[C@H]1CC[C@@H](CCNS(=O)(=O)Cc2ccccc2)O[C@H]1CO)c1ccc2c(c1)OCO2 | -1 | -4 | -0.6 | i
CC(C)C#Cc1ccc2c(c1)O[C@@H](CN(C)CC1CCCC1)[C@H](C)CN([C@@H](C)CO)S2(=O)=O | 2 | 3 | 0.2 | i
CNC[C@@H]1OCCCC[C@@H](C)Oc2ccc(NC(=O)Nc3c(C)noc3C)cc2C(=O)N([C@@H](C)CO)C[C@H]1C | 5 | 5 | -1.4 | i
C[C@H](CO)N1C[C@H](C)[C@H](CN(C)C)Oc2ccc(NC(=O)CCN3CCOCC3)cc2C1=O | -3 | 8 | -0.2 | i
COC(=O)[C@]12C[C@H](CC(=O)NCc3cccs3)C(=O)N(Cc3ccccc3)C1=C[C@H](C1CCCC1)O[C@@H]2C | -6 | -8 | -0.1 | i
O=C(Nc1ccccc1F)N1C[C@@H]2[C@H](c3ccccc31)[C@H](CO)N2C(=O)c1ccccc1F | 2 | 2 | -6.2 | i
C[C@@H]1CN([C@H](C)CO)C(=O)Cc2cc(NS(=O)(=O)c3cccs3)ccc2O[C@H]1CN(C)S(C)(=O)=O | 3 | 8 | -1.6 | i
C[C@@H]1CN([C@H](C)CO)C(=O)Cc2cc(NC(=O)Cc3cn(C)c4ccccc34)ccc2O[C@H]1CN(C)Cc1ccncc1 | -1 | -4 | -1.0 | i
CO[C@@H]1CN(C)C(=O)c2ccc(NC(=O)C3CC3)cc2OC[C@@H](C)N(CC2CC2)C[C@H]1C | 0 | 1 | -1.1 | i
CCC(=O)N1CC[C@@H]2[C@H]1c1cc(-c3ccc(C(=O)N(C)C)cc3)ccc1N[C@@H]2CO | -2 | 8 | -1.0 | i
COc1ccc(NC(=O)Nc2ccc3c(c2)C(=O)N([C@H](C)CO)C[C@@H](C)[C@H](CN(C)S(=O)(=O)c2ccc(OC)cc2)OCCCC[C@H](C)O3)cc1 | 0 | 5 | -1.9 | i
CNC(=O)C[C@H]1CC[C@H]2[C@H](COc3ccc(NC(=O)NC4CCCC4)cc3C(=O)N2C)O1 | 3 | 3 | 0.1 | i
COc1ccc2c3c([nH]c2c1)[C@H](CO)N(S(=O)(=O)c1cn(C)cn1)CC31CCN(Cc2ccccc2)CC1 | -3 | -2 | 2.1 | i
C[C@H]1CN([C@@H](C)CO)C(=O)c2cccc(NC(=O)c3nc4ccccc4s3)c2O[C@@H]1CN(C)C(=O)NC1CCCCC1 | -6 | -5 | -2.0 | i
CCCNC(=O)N(C)C[C@@H]1Oc2cc(-c3cncnc3)ccc2S(=O)(=O)N([C@H](C)CO)C[C@H]1C | 3 | 1 | -0.8 | i
C[C@H]1CN([C@@H](C)CO)C(=O)Cc2cc(NC(=O)Nc3cccc4ccccc34)ccc2O[C@@H]1CN(C)Cc1ccc(C(=O)O)cc1 | 0 | 4 | -1.4 | i

High-throughput results deposited in PubChem BioAssay by Broad Institute.
